# Bioassay records as filed in PubChem.
# Mtb hypoxia inh: inhibitors of hypoxia-regulated fluorescent reporter in Mycobacterium tuberculosis | actives 0.1% (n = 300,000) | M. tuberculosis hypoxia-regulated fluorescent reporter, fluorescence | fluorescence inhibition, % (concentration not given with the values) | AID 1159583;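 active = 35 to 45% if threefold the growth effect, above 45% if 1.5-fold the growth effect; inactive = the rest, general growth blockers included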;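 also: wells of about 50 µL received 100 nL stock; 0% = vehicle wells and 100% = reference inhibitor wells; whole bacteria with a GFP reporter of the hypoxia response; strong numbers were not always called active; many hits fall short of the cut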
# Sa RN4220 lethal: kills Staphylococcus aureus RN4220; S. aureus RN4220 growth, OD600, 16 h; inhibition, % (no concentration beside the values); actives 0.33% (n = 330,000); AID 1259311;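 active = z-score of -3 or lower and OD600 up to 0.18 on both plates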;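 also: plate controls were untreated cells for no effect and reference antibiotic for full effect; stock transfer was 100 nL into about 80 µL; one replicate is shown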
# Bead autofluor: compound fluorescence in toxin protease inhibitor counterscreen | AID 624483 | compound autofluorescence counterscreen, microsphere flow cytometry; stronger effect = higher value | fluorescence intensity (concentration not given with the values) | actives 3.1% (n = 360,000);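 active = at least 3 SD above the mean of all compounds, about 16000 in these data; inconclusive = too few beads counted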;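 also: 100 nL of 1 mM stock went into each well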
# PrP UTR inh: suppresses PrP 5' UTR mRNA reporter expression | inhibition, % (concentration not given with the values) | AID 488862 | actives 0.35% (n = 340,000) | cell-based PrP 5' UTR mRNA reporter, plate reader;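 active = every replicate at 50% or more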;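 also: 0 = median of the neutral control wells; tested in H4 reporter cells; numbers are from one replicate; inactives centre near -14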
# Sa ugtP lethal: growth inhibition of S. aureus ugtP deletion strain. S. aureus RN4220 ugtP deletion, OD600 growth, 16 h; some inactives read as strong as hits. growth inhibition, % (no concentration beside the values). actives 0.54% (n = 330,000). AID 1259309;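 active = z-score under -3 and OD600 up to 0.15 on both plates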;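 also: plate controls were untreated wells for no effect and antibiotic for full effect; wells of about 80 µL received 100 nL stock; the first replicate is given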
# BJeLR lethal: kills HRASV12-expressing BJeLR cells; inhibition, % (test concentration not listed); BJeLR (HRASV12) viability, CellTiter-Glo ATP luminescence, 48 h; reference of the scale not given here; actives 0.17% (n = 300,000);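 active = replicate mean above 50%; inconclusive = above 50% but judged a plate artefact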;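 also: 50 nL library stock added to about 25 µL; numbers are from one replicate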
# Mtb hypoxia inh growth: further read-out of Mtb hypoxia inh, marked with its call; growth inhibition, %; measured here: M. tuberculosis growth (absorbance);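 0% = vehicle and 100% = reference antibiotic; read after six days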
# The depositor's hits bear a star; ? = inconclusive; . = not tested or not shown; & = joins results of further samples.
compound	Mtb hypoxia inh growth	PrP UTR inh	Mtb hypoxia inh	Sa RN4220 lethal	Sa ugtP lethal	BJeLR lethal	Bead autofluor
Cc1cc(=O)n(CC(=O)NCCN2CCOCC2)c2c1c(C)nn2-c1ccccc1	7	-20	7	0.1	3	0	5383
CCOc1ccccc1CNC(=O)c1ccc(NC(=O)C2=C(C)OCCS2)cc1	9	-9	2	6.9	3	-13	4842
COc1cc(C=NNC(=O)CCN2CCN(C(c3ccccc3)c3ccccc3)CC2)ccc1O	6	.	0	-0.7	2	.	.
COc1ccc(S(=O)(=O)N2CCC(C(=O)N[C@@H](C)C(=O)NCc3ccc(F)cc3)CC2)cc1	-1	-4	1	-0.4	1	12	5242
Cc1cc(C(=O)NCCc2ccc(Cl)cc2)c2ccccc2n1	8	-20	11	-0.2	7	2	4565
O=C(Cc1c(F)cccc1Cl)NN=Cc1cccs1	-1	.	12	-0.5	1	.	.
CN1CCN(NC(=O)c2cc(-c3ccc(Cl)s3)nc3ccccc23)CC1	-3	-7	6	-7.1	-6	3	3733
Cc1ccc(C(=O)CC(=O)c2ccc(C(C)(C)C)cc2)cc1	9	-36	7	-12	28	-11	2127
Cc1ccc(S(=O)(=O)N2CCN(C(=O)CSc3cc(C)ccc3C)CC2)c(C)c1	-3	5	-5	-0.3	-7	2	4453
Cc1ccsc1C=NNC(=O)CCc1c(C)n[nH]c1C	9	.	-5	0.2	-3	.	.
Cc1sc2ncnc(NCCc3ccc(S(N)(=O)=O)cc3)c2c1C	-2	3	-2	20	14	12	2604
O=C(COC(=O)c1ccco1)NCc1ccc(Cl)cc1	12	-11	12	6.8	4	9	3095
Cc1ccc(-c2cc(-c3nnc(SCC(=O)NC(C)C(C)C)n3N)c3ccccc3n2)cc1 (stereo not given)	3	.	0	5.1	-2	6	10933
O=C(Oc1cccc(C=NNC(=O)c2ccccn2)c1)c1ccc([N+](=O)[O-])cc1	-10	.	-3	1.0	-2	.	.
O=C(CC1S/C(=N/N=C2CCCCCC2)NC1=O)Nc1ccccc1F (stereo not given)	7	-11	12	4.3	5	-2	5230
COc1ccc2c(c1)CCc1c(C(=O)N3CCCc4ccccc43)noc1-2	4	-13	11	8.0	6	6	8028
C/C(=N\NC(=S)NCCc1ccccc1)c1ccc(C)cc1	.	-21	.	.	.	-6	8895
N#CCC(N)=C(C#N)C#N	2	-21	6	6.9	-1	-2	5633
COc1ccc(CNC(=S)Nc2ccccc2C)cc1	.	16	.	1.8	-6	-43	2676
COc1ccc(OC(=O)c2cc(S(=O)(=O)N3CCCC3)ccc2Cl)cc1	-1	-16	14	2.7	22	1	5854
CCOCC(=O)Nc1c(C(=O)Nc2ccc3c(c2)OCO3)oc2ccccc12	7	-78	2	-0.8	-10	-2	5397
Cn1c(=O)c2c(nc(NCC3CCCO3)n2Cc2cccc(Br)c2)n(C)c1=O (stereo not given)	4	-6	4	1.5	-6	1	?
COc1ccc(N2COC3c4cccc5cccc(c45)C32)cc1 (stereo not given)	9	-25	4	2.4	2	4	20787*
O=C(Nc1cccc(NC(=O)c2ccco2)c1)c1ccccc1	-6	-15	2	4.9	3	-1	5027

# Looked up one by one from above:
compound	Mtb hypoxia inh growth	PrP UTR inh	Mtb hypoxia inh	Sa RN4220 lethal	Sa ugtP lethal	BJeLR lethal	Bead autofluor
COc1ccc(OC(=O)c2cc(S(=O)(=O)N3CCCC3)ccc2Cl)cc1	-1	-16	14	2.7	22	1	5854
COc1ccc(N2COC3c4cccc5cccc(c45)C32)cc1 (stereo not given)	9	-25	4	2.4	2	4	20787*

# (listing goes on)
compound	Mtb hypoxia inh growth	PrP UTR inh	Mtb hypoxia inh	Sa RN4220 lethal	Sa ugtP lethal	BJeLR lethal	Bead autofluor
Cc1ccc2c(C(=O)CN3CCN(C(=O)c4ccco4)CC3)c(C)[nH]c2c1	5	0	-2	6.4	0	7	3517
Brc1cccc(-c2nnc3sc(CNCc4ccco4)cn23)c1	-3	-9	5	-0.7	2	-4	4325
CCOC(=O)Nc1cccc(OCC(=O)Nc2ccccc2OCC)c1	5	-15	7	6.0	-7	4	22734*
CCOc1cc(NC2CS(=O)(=O)CC2O)c(OCC)cc1NC(=O)c1ccccc1 (stereo not given)	-3	0	-3	-1.3	3	-2	4954
CC(C)(C)C(=O)NNc1nc(-c2ccccc2)c2cc(Br)ccc2n1	14	-4	10	3.2	5	6	2314
COc1cc(C(=O)N/N=C/c2ccc(OC(=O)N3CCOCC3)cc2)cc(OC)c1OC	.	-16	.	.	.	-2	2538
Nc1nnn(CC(=O)NN=Cc2ccc(Cl)cc2Cl)n1	3	.	3	2.3	8	.	.
CC(OC(=O)c1ccco1)C(=O)Nc1ccc(Cl)cn1 (stereo not given)	-2	-5	3	3.1	6	-5	3245
O=C(c1cccnc1)N1CCN(S(=O)(=O)c2cccs2)CC1	-8	-13	3	1.7	4	-9	4428
Cc1nc(CS(=O)c2ccc(Cl)cc2)cc(NCc2ccc(Cl)cc2Cl)n1 (stereo not given)	.	-13	.	0.2	-16	-2	5431
CC1(OC(=O)c2ccc(Cl)nc2)C(=O)C=C2C=C3CCCN3C=C2C1=O (stereo not given)	9	-16	9	7.2	-8	.	3850
C/C(=N\n1cnnc1)c1ccc(C#N)cc1	.	-28	.	.	.	7	4989
CCN1/C(=C\C=C(C(C)=O)C(C)=O)Sc2ccccc21	4	-1	25	2.3	-1	-10	3116
Cc1ncc(CO)c(C=NNC(=O)c2cc(Br)ccc2O)c1O	-7	.	-4	6.0	3	.	.
Cc1ccc(Cc2cnc(NC(=O)CN3CCOCC3)s2)cc1Cl	5	-22	3	7.1	-5	-5	10790
Cc1cc(NC(=O)CSc2nc(C(C)C)nc3sc(C)c(C)c23)no1	-5	-2	8	4.4	8	8	9395
Cc1cc(C)c(O)c(-c2cc(C(=O)Nc3cccnc3)[nH]n2)c1	1	-6	9	-1.7	9	-3	5812
Cc1cccc(OCCSc2nc3ccccc3n2CC(=O)O)c1	-2	-9	0	3.1	6	-5	3577
Cc1nc(NCC2CCCO2)c2nnn(Cc3ccccc3Cl)c2n1 (stereo not given)	8	-13	7	3.1	21	-5	8052
COc1ccc(C(CC(=O)Nc2nccs2)n2cccc2)cc1 (stereo not given)	6	-102	-4	4.4	-9	-20	2400
C=C1CCN(C(Cc2ccccc2)C(=O)NCc2ccccc2)S(=O)(=O)c2ccccc21 (stereo not given)	9	.	6	11	-9	.	.
CCC[C@@H]1CCCO[C@@](C(=O)NCc2ccccn2)(C(F)(F)F)C1	14	-10	3	-9.4	-8	6	3554
COCCN(CC1CCCN(C2Cc3ccccc3C2)C1)C(=O)c1cccc(C)c1 (stereo not given)	0	-29	8	-0.3	2	3	5942
O=C(NC(O)C(=O)c1cccs1)c1cccnc1 (stereo not given)	9	-5	13	-3.5	-3	-4	2934
O=S(=O)(NCC(c1ccco1)N1CCc2ccccc21)c1ccccc1 (stereo not given)	5	-4	7	4.3	7	3	.
COc1ccccc1CCNC(=O)C(=O)NCC1OCCN1S(=O)(=O)c1ccccc1 (stereo not given)	10	-28	15	-15	-2	-12	5909
CC(C)COc1cccc(C(=O)N(C)CC(=O)Nc2cccc3ccccc23)c1	7	5	1	3.8	5	.	4023
O=C(C1CCCN(Cc2ccc3c(c2)OCO3)C1)N1CCCC1 (stereo not given)	.	-20	.	-0.3	14	6	3747
CCOC(=O)C1CCCN(S(=O)(=O)c2cc3[nH]c(=O)c(=O)[nH]c3cc2C)C1 (stereo not given)	.	-2	.	2.2	-3	5	6074
COc1ccc(CCn2nnnc2CN2CCN(C(=O)c3ccco3)CC2)cc1OC	2	-11	-4	3.3	3	-7	2194
CC(C)[C@H](NC(=O)c1c(F)cccc1F)C(=O)Nc1cccc(Br)c1	1	-37	-5	2.9	-5	-7	3981
Nc1c(C(=O)NC2CCCC2)c2nc3ccccc3nc2n1/N=C/c1ccco1	.	-33	.	.	.	5	4328
NNC(=O)C(Cc1c[nH]c2ccccc12)NC(=O)c1ccccc1 (stereo not given)	-10	3	-3	-3.6	0	3	4125
CCCc1noc2c1C(c1ccoc1)C(C#N)=C(N)N2 (stereo not given)	10	-6	12	-1.0	0	1	2346
O=C(NCC1CCCO1)C(c1ccc(F)cc1)N(Cc1ccc(F)cc1)C(=O)Cn1nnc(-c2cccs2)n1 (stereo not given)	5	-15	5	-1.9	0	-1	4640
CC(=O)Nc1ccc2c(c1)N(C(=O)CN(C)C)c1ccccc1CC2	8	-22	5	0.1	4	-6	10475
CCC(C(=O)NC(C)(C)C)N(Cc1cccs1)C(=O)CNS(=O)(=O)c1ccccc1 (stereo not given)	5	-9	14	2.2	-4	-7	4403
COc1ccc(NC(=O)CCOc2ccccc2F)cc1S(=O)(=O)N1CCCCC1	21	-16	-3	1.6	9	.	3676
CC(=O)c1cccc(S(=O)(=O)N2CCN(c3nc4cc(C)cc(C)c4cc3C#N)CC2)c1	5	3	7	0.1	3	-5	4696
Nc1nonc1C(=O)N/N=C/c1cc2c(cc1[N+](=O)[O-])OCO2	.	-5	.	.	.	-12	4881
Cc1c(Cl)cccc1NC(=S)NCCc1ccc(F)cc1	0	3	2	-5.6	-10	4	2890
Cc1n[nH]c(=O)c2c(NC(=O)CSc3nncs3)oc(C)c12	-13	-8	-8	3.6	5	2	6333
CN(CCC#N)C(=O)CC1(Cc2ccccc2)CCOC(C)(C)C1 (stereo not given)	1	-12	13	1.8	-3	1	4083
CC1CCN(C(=O)COC(=O)c2ccc(N3CCCC3=O)cc2)CC1	6	-3	8	7.4	4	.	?
CCCCNc1c(-c2cccc(SC3CCCCC3)c2)nc2ccc(Cl)cn12	2	-12	4	-3.0	-7	-3	3086&5941
CC1CCCN(C(=O)Cn2c(=O)oc3cc(S(=O)(=O)N4CCCCC4C)ccc32)C1 (stereo not given)	-3	-18	-1	0.1	-22	.	4289
O=C(Cn1cnc2c(cnn2-c2ccccc2)c1=O)c1ccc(Cl)cc1	11	-17	-3	5.4	-6	2	6293
Cc1noc(C)c1COc1ccccc1C(=O)N1CCN(S(=O)(=O)c2ccccc2C(F)(F)F)CC1	-3	-2	-2	17	2	-6	5174
O=C(c1ccc(C(=O)N2CCCc3ccccc32)nc1)N1CCCc2ccccc21	0	-17	2	1.4	0	-11	11178
COC(=O)C1C(=O)c2c([nH]c(C(=O)OC3CCCC3)c2C)CC1C (stereo not given)	.	-14	.	1.5	-1	3	2725
CC1(NC(=O)c2cc(Cl)nc3ccccc23)CCS(=O)(=O)C1 (stereo not given)	0	-10	2	4.2	6	.	.
CCOC(=O)C1=C(CN2CCN(C(=O)c3ccco3)CC2)NC(=O)NC1c1ccc(C)cc1 (stereo not given)	0	-5	-5	0.7	0	0	4376
S=c1[nH]c(-c2cccs2)cn1-c1ccccc1	-2	-19	0	3.0	-4	-8	4785
O=C(N/N=C/c1c[nH]c2ccc(Br)cc12)c1ccccn1	.	-13	.	.	.	6	4424
Cc1ccc(C(=O)N/C(=C/c2ccc(C(C)C)cc2)C(=O)NCCCN2CCOCC2)cc1	2	.	7	7.7	0	0	5970
COC(=O)C1C(=O)C=C(N2CCOCC2)CC1(C)C (stereo not given)	.	-11	.	-1.1	4	2	5095
Cn1cc(C(=O)NN=CC2=C(N3CCOCC3)/C(=C\c3ccccc3)CC2)ccc1=O	2	.	-1	-1.8	3	.	.
COC(=O)c1sc(NC(=O)CSc2nnnn2C)nc1C	9	-59	7	6.6	10	-10	5728
CCOc1ccc(CCNC(=O)Cn2c(-c3nonc3N)nc3ccccc32)cc1OCC	5	-11	12	8.2	9	.	2374
COCCCN1CN(S(=O)(=O)c2cccs2)c2nc3ccccc3nc21	3	-9	7	5.7	-3	-4	?
Cc1ccc2c(CSc3nncs3)cc(=O)oc2c1	10	-26	17	6.0	5	-10	10508
